Bioassay records (PubChem)
total CFTR – total CFTR protein upregulators, primary screen, cell-based, HeLa F508del-CFTR, immunofluorescence, viability (AID 1224863); HeLa F508del-CFTR, immunofluorescence total CFTR, 24 h; by the record results were divided by relative cell number; some inactives read as strong as hits; calls, or highest fold increase where a dose series was run; 0.1% of 10,000 active; in the data nearly all actives have a first-pass fold increase above 1.5; a few of its hits are not listed in these tables;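 also: total CFTR protein by anti-CFTR immunofluorescence in fixed cells; first pass at 25 µM or 10 µg/mL by library and series up to twice that; 1 = untreated cells; first-pass hits also needed half or more of the cells alive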
total CFTR fold 25 µM – further read-out of total CFTR, marked with its call; fold increase; measured here: primary screen single dose 25 uM; library dosed in µM
total CFTR fold 10 ug/mL – also measured in total CFTR; calls as there; fold increase; measured here: primary screen 10 ug/mL
total CFTR viability 25 µM – second read-out of total CFTR, no call of its own (marks repeat the call); viability, %; measured here: primary viability 25 uM; library dosed in µM;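 0% = killed and 100% = untreated cells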
total CFTR viability 10 ug/mL – second read-out of total CFTR, no call of its own (marks repeat the call); viability, %; measured here: primary viability 10 ug/mL;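 0% = killed and 100% = untreated cells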
An asterisk follows results filed as active; i = inactive; nt = no result given; & = joins results of further samples. Only part of the results is shown (hit frequency here may not be typical).

SMILES	total CFTR	total CFTR fold 10 ug/mL	total CFTR viability 10 ug/mL	others
NCCCC(O)(P(=O)(O)O)P(=O)(O)O	i	nt	nt	total CFTR fold 25 µM=1.36&0.92&1.1;total CFTR viability 25 µM=95.0&96.0&101.0
CC1CCC2(CC1)NC(=O)N(CC(=O)N(C1=CCCCC1)C1CC1)C2=O (centres undefined)	i	1.01	101.0
CN(Cc1nnc2n1CCC2)S(=O)(=O)c1ccc(Br)cc1Cl	i	1.13	100.0
C=CCn1cnn(CN2CCC(c3nc4ccccc4o3)CC2)c1=S	i	1.06	103.0
CCOc1ccc(Br)cc1S(=O)(=O)NC1CCCc2ccccc21 (centres undefined)	i	0.99	75.0
Nc1ccc(S(N)(=O)=O)cc1	i	nt	nt	total CFTR fold 25 µM=1.11&0.96;total CFTR viability 25 µM=88.0&86.0
Cc1nc(CNC(C(=O)O)C(C)C)cs1 (centres undefined)	i	1.06	88.0
O=[N+]([O-])c1cc2c(cc1S(=O)(=O)N1CCCC(C(F)(F)F)C1)OCCCO2 (centres undefined)	i	0.85	74.0
CC(=O)[C@H]1CCC2C3CC=C4C[C@@H](O)CC[C@]4(C)C3CC[C@@]21C (some centres undefined)	i	nt	nt	total CFTR fold 25 µM=1.19;total CFTR viability 25 µM=83.0
Cc1noc(C)c1S(=O)(=O)N1CCCN(Cn2nc(C(C)C)n(C3CC3)c2=S)CC1	i	1.01	91.0
Cc1cc2oc(=O)cc(COC(=O)c3ccc4c(c3)S(=O)(=O)c3ccccc3C4=O)c2cc1C(C)C	i	1.07	95.0
Cn1cc(Cl)cc1C(=O)OCC(N)=O	i	1.08	104.0
CC(C)c1ccc2oc3nc(N)c(C(=O)O)cc3c(=O)c2c1	i	nt	nt	total CFTR fold 25 µM=0.9;total CFTR viability 25 µM=83.0
CC(C)[N+](C)(CCOC(=O)C1c2ccccc2Oc2ccccc21)C(C)C	i	nt	nt	total CFTR fold 25 µM=0.9;total CFTR viability 25 µM=95.0
Cc1nc2nc(C(F)(F)F)nn2c(C)c1CC(=O)N1CC(C)OC(C)C1 (centres undefined)	i	1.35	101.0
NCCCOCC(F)(F)F	i	1.1	103.0
CN(Cc1ccco1)C(=O)C1=NN(C2CCS(=O)(=O)C2)C(=O)CC1 (centres undefined)	i	1.01	100.0
CC(NCc1ccc(-n2ccnc2)cc1)c1ccc(-n2ccnc2)cc1 (centres undefined)	i	1.01	87.0
O=C(O)CCCN1CCN([C@H](c2ccccc2)c2ccc(Cl)cc2)CC1	i	nt	nt	total CFTR fold 25 µM=0.93;total CFTR viability 25 µM=102.0
CCC(CC)O[C@@H]1C=C(C(=O)OC)C[C@H](N)[C@H]1NC(C)=O	i	nt	nt	total CFTR fold 25 µM=1.1;total CFTR viability 25 µM=101.0
CCOC(=O)c1c(C)oc2nc(COc3ccc(C)nc3[N+](=O)[O-])nc(N)c12	i	0.97	74.0
CC(C)(C)NCC(O)COc1cccc2c1CCC(=O)N2 (centres undefined)	i	nt	nt	total CFTR fold 25 µM=1.16;total CFTR viability 25 µM=85.0
CN(C(=O)c1cc2c(s1)-c1ccccc1OC2)C1CCS(=O)(=O)C1 (centres undefined)	i	0.9	92.0
CN1CCC(C(=O)O)C1 (centres undefined)	i	1.02	94.0
Nc1c(Br)cc(Br)cc1CNC1CCC(O)CC1 (centres undefined)	i	nt	nt	total CFTR fold 25 µM=1.02&0.99;total CFTR viability 25 µM=81.0&82.0
COc1ccc(S(=O)(=O)N2CCC(N)CC2)cc1	i	1.15	100.0
Clc1ccc2nnn(OCc3sc4ccccc4c3Cl)c2c1	i	1.06	96.0
C/C=C(/C)C(=O)O[C@@H]1[C@H](OC(C)=O)[C@@]2(CO)C(CC1(C)C)C1=CCC3[C@@]4(C)CC[C@H](O[C@@H]5O[C@H](C(=O)O)[C@@H](O[C@@H]6O[C@H](CO)[C@@H](O)[C@H](O)[C@H]6O)[C@H](O)[C@H]5O[C@@H]5O[C@H](CO)[C@@H](O)[C@H](O)[C@H]5O)[C@](C)(CO)C4CC[C@@]3(C)[C@]1(C)C[C@H]2O (some centres undefined)	i	nt	nt	total CFTR fold 25 µM=0.71;total CFTR viability 25 µM=3.0
O=c1c(Cl)cc(C(F)(F)F)cn1Cc1ccc(-n2cccn2)cc1	i	1.02	80.0
CCCCCCCCCCCCSc1nc2c(c(=O)[nH]c(=O)n2C)n1CCCCCC	i	1.05	109.0
Cn1c(-c2c(N)n(Cc3ccc(C(F)(F)F)cc3)c3nc(C#N)c(C#N)nc23)nc2ccccc21	i	0.92	71.0
O=C(NCCSc1ccc(Cl)cc1)C12CC3CC(CC(O)(C3)C1)C2	i	0.89	100.0
O=C1[C@H](CCC(O)c2ccc(F)cc2)[C@@H](c2ccc(O)cc2)N1c1ccc(F)cc1 (some centres undefined)	i	nt	nt	total CFTR fold 25 µM=0.96;total CFTR viability 25 µM=84.0
CC1CCC(NS(=O)(=O)CCn2cnc3ccccc32)CC1 (centres undefined)	i	0.93	84.0
O=C1c2ccccc2N2C(=O)CCC2(C(=O)NCc2ccccc2)N1Cc1ccco1 (centres undefined)	i	1.02	80.0
CC(=O)N1C=Cc2ccccc2C1CC(=O)Nc1ccccc1Br (centres undefined)	i	1.05	89.0
Cc1ccc(NS(=O)(=O)c2ccc(S(C)(=O)=O)cc2)cc1I	i	0.91	73.0
CN(CCO)c1nc2ccccn2c(=O)c1[N+](=O)[O-]	i	1	96.0
O=c1[nH]c(=O)n(C2C[C@H](O)[C@@H](CO)O2)cc1C(F)(F)F (some centres undefined)	i	nt	nt	total CFTR fold 25 µM=1.47;total CFTR viability 25 µM=93.0
CCOC(=O)c1c(C)[nH]c(C(=O)C(C)OC(=O)c2c(C)noc2C)c1C (centres undefined)	i	0.92	96.0
CC1(C2CC2)NC(=O)N(CN2CCc3ccccc3C2)C1=O (centres undefined)	i	1.2	112.0
CN(Cc1nc(-c2ccc(Cl)cc2)no1)C1CCc2ccccc21 (centres undefined)	i	0.98	96.0
COc1ccc(-c2nc(COc3cccc4c3CCC4=O)no2)cc1	i	1.16	94.0
CCN(CC)C(=O)c1ccc(O)c(OC)c1	i	nt	nt	total CFTR fold 25 µM=1.1;total CFTR viability 25 µM=83.0
O=C(NCCC1=CCCCC1)c1ccc(S(=O)(=O)NC2CC2)o1	i	0.97	78.0
Cc1cc(N2CCN(S(=O)(=O)c3ccc4c(c3)CCO4)CC2)nc(C(C)C)n1	i	0.84	81.0
O=C1CN(c2nc(-c3ccccn3)nc3scc(-c4ccccc4)c23)CCN1	i	0.97	84.0
Cn1ccc(S(=O)(=O)N2CCN(S(=O)(=O)c3ccc4c(c3)CCCC4)CC2)c1	i	0.94	82.0
CCCc1cc(=O)[nH]c(SCc2nnc(-c3cc(C)c(CC)s3)o2)n1	i	0.96	98.0
COc1ccc(OC)c(NS(=O)(=O)c2cc(C(F)(F)F)cc(C(F)(F)F)c2)c1	i	0.89	92.0
FC(F)(F)c1ccc(CN2CCN(c3ccc4nnnn4n3)CC2)cc1	i	1.01	96.0
CCC1=C(C)CN(C(=O)NCCc2ccc(S(=O)(=O)NC(=O)NC3CCC(C)CC3)cc2)C1=O (centres undefined)	i	nt	nt	total CFTR fold 25 µM=0.99&1.16&0.96;total CFTR viability 25 µM=107.0&101.0&96.0
COc1ccc(-c2nnc(C(C)n3nnc(-c4ccc(Br)cc4)n3)o2)cc1 (centres undefined)	i	0.95	96.0
CO/N=C(\C(=O)N[C@@H]1C(=O)N2C(C(=O)O)=C(COC(C)=O)CS[C@H]12)c1csc(N)n1	i	nt	nt	total CFTR fold 25 µM=1.07;total CFTR viability 25 µM=106.0
Cc1cc(NC(=O)CCC2CCCCC2)n(C2CCS(=O)(=O)C2)n1 (centres undefined)	1.43	4.58	92.0
CN1/C(=C/C(=O)COC(=O)c2ccccc2C(=O)c2ccccc2)C(C)(C)c2ccccc21	i	0.98	107.0
CCCCCn1c(=O)c2ccccc2n2c(CN3C(=O)C(=O)N(C4CCCC4)C3=O)nnc12	i	1.05	113.0
NCc1ncc(-c2ccccc2)[nH]1	i	1.06	100.0
CC(C)(C)OC(=O)N1CCN(C(=O)c2nc(N3CCCCC3)ncc2Cl)CC1	i	0.75	102.0
O=C(CCN1C(=O)NC2(CCCC2)C1=O)NC1CCSc2ccc(F)cc21 (centres undefined)	i	1.15	82.0

Grouped by structure: the entries above containing a tert-butyl group (2)
SMILES	total CFTR	total CFTR fold 10 ug/mL	total CFTR viability 10 ug/mL	others
CC(C)(C)NCC(O)COc1cccc2c1CCC(=O)N2 (centres undefined)	i	nt	nt	total CFTR fold 25 µM=1.16;total CFTR viability 25 µM=85.0
CC(C)(C)OC(=O)N1CCN(C(=O)c2nc(N3CCCCC3)ncc2Cl)CC1	i	0.75	102.0

The main list resumes, starting four compounds before the break.
SMILES	total CFTR	total CFTR fold 10 ug/mL	total CFTR viability 10 ug/mL	others
CCCCCn1c(=O)c2ccccc2n2c(CN3C(=O)C(=O)N(C4CCCC4)C3=O)nnc12	i	1.05	113.0
NCc1ncc(-c2ccccc2)[nH]1	i	1.06	100.0
CC(C)(C)OC(=O)N1CCN(C(=O)c2nc(N3CCCCC3)ncc2Cl)CC1	i	0.75	102.0
O=C(CCN1C(=O)NC2(CCCC2)C1=O)NC1CCSc2ccc(F)cc21 (centres undefined)	i	1.15	82.0
CN(Cc1cc(Br)cc(Br)c1N)C1CCCCC1	i	nt	nt	total CFTR fold 25 µM=1.05&1.04;total CFTR viability 25 µM=94.0&84.0
CCn1cnnc1SCc1cc(F)cc2c1OC(c1ccccc1)OC2 (centres undefined)	i	1.02	97.0
O=C1OCCN1c1cccc([N+](=O)[O-])c1	i	1.03	88.0
CN(Cc1ccc(C(F)(F)F)cc1)C(=O)C1(S(=O)(=O)c2ccc(Cl)cc2)CCCC1	i	1.04	93.0
CCC[C@@H]1C[C@@H](C(=O)N[C@@H]([C@H]2O[C@H](SC)[C@H](O)[C@@H](O)[C@H]2O)[C@@H](C)O)N(C)C1	i	nt	nt	total CFTR fold 25 µM=0.96;total CFTR viability 25 µM=103.0
Cn1c(N)c(C(=O)CN(Cc2ccco2)Cc2cccs2)c(=O)n(C)c1=O	i	0.98	86.0
O=C1NC2(CCCCCC2)C(=O)N1CN1CCCC(c2nc3ccccc3s2)C1 (centres undefined)	i	1.01	104.0
CS(=O)(=O)NCC1CCCN(S(=O)(=O)c2cc(C(F)(F)F)cc(C(F)(F)F)c2)C1 (centres undefined)	i	0.95	103.0
CCC1CCCCN1 (centres undefined)	i	0.9	100.0
O=C(O)P(=O)(O)O	i	nt	nt	total CFTR fold 25 µM=1.02;total CFTR viability 25 µM=74.0
c1coc(C2CC(c3cccs3)=NN2c2nc(-c3cccs3)cs2)c1 (centres undefined)	i	1.13	90.0
CCCN(CCC)S(=O)(=O)c1ccc(C(=O)O)cc1	i	nt	nt	total CFTR fold 25 µM=1.14;total CFTR viability 25 µM=114.0
Cc1cc(C(=O)COC(=O)c2ccc(CS(C)(=O)=O)cc2)c(C)c(C)c1C	i	1.05	90.0
Cc1noc(C2CCN(S(=O)(=O)c3c(Cl)cc(Br)cc3Cl)CC2)n1	i	0.88	78.0
O=C(c1cnccn1)N1CCCC1c1ccsc1 (centres undefined)	i	1.12	105.0
C1N2CN3CN1CN(C2)C3	i	nt	nt	total CFTR fold 25 µM=1.06;total CFTR viability 25 µM=109.0
CC(=O)c1c[nH]c2cc(Cl)ccc12	i	0.97	88.0
CC(C)CCNS(=O)(=O)c1ccc2c(c1)CCC2	i	0.81	91.0
Nc1nc(COC(=O)c2cc3c(s2)CCC3)nc(Nc2ccc(F)cc2)n1	i	1.09	90.0
CCOc1ccc(Cc2nccc3cc(OCC)c(OCC)cc23)cc1OCC	i	nt	nt	total CFTR fold 25 µM=0.93;total CFTR viability 25 µM=82.0
O=C(CCc1ccsc1)NCC1CCCC1	i	1.01	88.0
Cc1ccc(C(C)NC(=O)c2ccco2)o1 (centres undefined)	i	1.02	85.0
Cc1nn(-c2ccccc2)c2c1C1(C(=O)Nc3ccc(F)cc31)N1N=NN(c3ccccc3)C1=N2 (centres undefined)	i	0.96	92.0
CC(c1nc(N)nc(N(C)C)n1)N1CCN(CCO)CC1 (centres undefined)	i	1.09	100.0
CC1CN(C2CCN(S(=O)(=O)Cc3ccccc3)CC2)CCO1 (centres undefined)	i	1.05	81.0
O=C1CN(C(=O)COC(=O)c2oc3ccccc3c2CSC2CCCCC2)c2ccccc2N1	i	1.11	82.0
Oc1cccc2ccc(/C=C/c3cccc4c3OCO4)nc12	2.46	1.6	72.0
CCCCCCCCCCCCCCCCOP(=O)([O-])OCC[N+](C)(C)C	i	nt	nt	total CFTR fold 25 µM=0.88&1.2;total CFTR viability 25 µM=70.0&84.0
Cc1nnc(COC(=O)C2=Cc3ccccc3OC2)o1	i	1.03	102.0
NC1=NC(c2coc3ccccc3c2=O)n2c(nc3ccccc32)N1 (centres undefined)	i	0.89	94.0
Cc1csc(/C(C#N)=C\c2cc(C#N)n(C)c2C)n1	i	1.08	87.0
O=C(CCc1nc(-c2ccsc2)no1)N1CCN(c2nccs2)CC1	i	0.95	89.0
Clc1ccc(-c2nnn(CCc3ccccc3)n2)cc1	i	0.9	80.0
CCCNCC(O)COc1ccccc1C(=O)CCc1ccccc1 (centres undefined)	i	nt	nt	total CFTR fold 25 µM=1.13&1.11;total CFTR viability 25 µM=108.0&85.0
CN(c1ncnc2sc3c(c12)CCC3)C1CCCC1	i	1.13	89.0
